# UUG fidelity – yeast start codon fidelity modulation. S. cerevisiae UUG-firefly luciferase reporter, luminescence/redox ratio. activity score, % at 18.7 µM. hit rate 0.13% among 350,000. AID 602363;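 active = replicate mean at a twofold rise or more, about +100% in these data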;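 note: firefly luciferase made from a UUG start codon reports start codon fidelity; reporter light over untreated wells divided by growth signal over untreated wells; some hits fall short of that in this replicate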
# Env fusion inh – inhibitors of HIV Env-mediated cell fusion; AID 651610; HeLa-JRFL Env/CEM21 cell fusion, luciferase; inhibition, % at 12.3 µM; hit rate 1.1% among 360,000;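 active = mean replicate inhibition score of at least 50 and every replicate individually at or above 50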;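 note: 0% = plate neutral controls and 100% = maraviroc near 300 nM; one replicate is shown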
# * marks the source's active call; other numbers are inactive results; [ ] = dose if it differs, or a comment. Some of the compounds tested (hit frequency here may not be typical).
SMILES | UUG fidelity | Env fusion inh
Cc1noc(C)c1NC(=O)Nc1cccc2c1O[C@H](CN(C)Cc1ccc(Oc3ccccc3)cc1)[C@H](C)CN([C@H](C)CO)C2=O | 7.7 | 4.7[16.7 µM]
Cc1cc(C(=O)Nc2cccc3c2O[C@@H](CN(C)S(=O)(=O)c2ccc(F)cc2)[C@@H](C)CN([C@@H](C)CO)C3=O)n(C)n1 | 22.0 | -1.3[16.7 µM]
COc1ccc(CNC(=O)C[C@H]2CC[C@@H](NC(=O)Nc3ccc4c(c3)OCO4)[C@H](CO)O2)cc1 | -18.9 | 23.2[16.7 µM]
O=S(=O)(NCC[C@@H]1CC[C@@H](NS(=O)(=O)c2cccc(Cl)c2)[C@H](CO)O1)c1cccc(F)c1 | 12.6 | -14.8[16.7 µM]
COc1ccc(CN(C)C[C@H]2Oc3c(NC(=O)Nc4ccc5c(c4)OCO5)cccc3C(=O)N([C@@H](C)CO)C[C@H]2C)cc1 | 20.8 | -24.8[16.7 µM]
C[C@@H]1CCCCO[C@@H](CN(C)Cc2ccc3c(c2)OCO3)[C@@H](C)CN([C@H](C)CO)C(=O)c2cc(NC(=O)NC3CCCCC3)ccc2O1 | 19.0 | -27.2[16.7 µM]
C[C@H](CO)N1C[C@H](C)[C@H](CN(C)Cc2ccc(C(=O)Nc3ccccc3N)cc2)Oc2ccc(NS(C)(=O)=O)cc2CC1=O | -9.1 | -4.1[16.7 µM]
COc1ccc(S(=O)(=O)Nc2ccc3c(c2)C(=O)N([C@@H](C)CO)C[C@@H](C)[C@@H](CN(C)S(=O)(=O)c2cn(C)cn2)OCCCC[C@@H](C)O3)cc1 | 2.5 | -32.2[16.7 µM]
COCCOC(=O)N1C(=O)[C@@]2(c3cc(C#Cc4ccc(OC)cc4)ccc31)[C@H](c1ccccc1OCCO)N1[C@H](c3ccccc3)[C@H](c3ccccc3)OC(=O)[C@H]1[C@@H]2C(=O)N1CCc2cc(OC)c(OC)cc2C1 | -8.8 | 1.6[16.7 µM]
C[C@@H]1CN([C@H](C)CO)C(=O)Cc2cc(NC(=O)CCCN(C)C)ccc2O[C@H]1CN(C)Cc1ccc(Oc2ccccc2)cc1 | 5.1 | -29.4[16.7 µM]
COc1ccc(S(=O)(=O)Nc2cccc3c2O[C@H](CN(C)C(=O)NC(C)C)[C@@H](C)CN([C@@H](C)CO)C3=O)cc1 | 3.5 | -15.1[16.7 µM]
C[C@H]1CN([C@@H](C)CO)C(=O)c2cc(C3=CCCC3)cnc2O[C@@H]1CN(C)C(=O)NC1CCCC1 | 13.7 | 7.6[16.7 µM]

# Shown with values ahead of the structure: two of the compounds above
UUG fidelity,Env fusion inh,structure
12.6,-14.8[16.7 µM],O=S(=O)(NCC[C@@H]1CC[C@@H](NS(=O)(=O)c2cccc(Cl)c2)[C@H](CO)O1)c1cccc(F)c1
-8.8,1.6[16.7 µM],COCCOC(=O)N1C(=O)[C@@]2(c3cc(C#Cc4ccc(OC)cc4)ccc31)[C@H](c1ccccc1OCCO)N1[C@H](c3ccccc3)[C@H](c3ccccc3)OC(=O)[C@H]1[C@@H]2C(=O)N1CCc2cc(OC)c(OC)cc2C1

# Other records:
SMILES | UUG fidelity | Env fusion inh
CC(C)CC#Cc1cnc2c(c1)C(=O)N([C@@H](C)CO)C[C@H](C)[C@@H](CN(C)Cc1ccccc1)O2 | 9.9 | 12.8[16.7 µM]
COc1ccc(S(=O)(=O)N(C)C[C@@H]2OCCCC[C@H](C)Oc3ccc(NC(=O)Nc4ccc(F)cc4)cc3C(=O)N([C@H](C)CO)C[C@@H]2C)cc1 | -3.6 | -69.9[16.7 µM]
CN(C)C(=O)C[C@H]1CC[C@@H]2[C@H](COc3ccc(NS(=O)(=O)c4cccc(F)c4)cc3C(=O)N2C)O1 | -5.4 | -4.2[16.7 µM]
CCCN1C[C@@H](C)[C@@H](OC)CN(C)C(=O)c2ccc(NC(=O)Nc3c(C)noc3C)cc2OC[C@H]1C | 25.5 | -29.9[16.7 µM]
COCC#Cc1ccc2c(c1)O[C@H](CN(C)CC1CCCC1)[C@@H](C)CN([C@H](C)CO)S2(=O)=O | 6.3 | -15.5[16.7 µM]
C[C@@H]1CN([C@@H](C)CO)C(=O)c2cc(NC(=O)CCC(F)(F)F)ccc2O[C@@H](C)CCCCO[C@H]1CN(C)C(=O)NC1CCCCC1 | 10.1 | 17.3[16.7 µM]
O=C(Nc1ccc2c(c1)OCO2)N[C@H]1CC[C@@H](CCNC(=O)C2CC2)O[C@H]1CO | -1.6 | -12.1[16.7 µM]
Cc1noc(C)c1NC(=O)Nc1ccc2c(c1)CC(=O)N([C@H](C)CO)C[C@@H](C)[C@H](CN(C)S(=O)(=O)c1ccc(F)cc1)O2 | -3.8 | 16.4[16.7 µM]
CN(C)CC(=O)N[C@H]1C=C[C@H](CC(=O)NCc2ccccc2F)O[C@@H]1CO | -6.1 | 9.8[16.7 µM]
COCC#Cc1cnc2c(c1)C(=O)N([C@@H](C)CO)C[C@@H](C)[C@@H](CN(C)S(=O)(=O)c1cccc(OC)c1)O2 | 5.2 | 16.0[16.7 µM]
C[C@H](CO)N1C[C@H](C)[C@H](CN(C)S(=O)(=O)c2ccc(Cl)cc2)OCCCC[C@H](C)Oc2ccc(NC(=O)Nc3ccccc3)cc2C1=O | -17.7 | 32.4[16.7 µM]
Cc1ccc(S(=O)(=O)N(C)C[C@H]2Oc3c(NC(=O)c4cnccn4)cccc3C(=O)N([C@H](C)CO)C[C@H]2C)cc1 | -7.0 | -1.6[16.7 µM]

# (cont.)
SMILES | UUG fidelity | Env fusion inh
COc1ccc(S(=O)(=O)N(C)C[C@@H]2Oc3cc(C#CC4CC4)ccc3S(=O)(=O)N([C@H](C)CO)C[C@@H]2C)cc1 | 7.8 | 19.6[16.7 µM]
COc1cccc(-c2cnc3c(c2)C(=O)N([C@@H](C)CO)C[C@H](C)[C@@H](CN(C)C(=O)CN(C)C)O3)c1 | 10.6 | -22.4[16.7 µM]
C[C@H]1CN([C@@H](C)CO)C(=O)c2cccc(NS(=O)(=O)c3ccc(F)cc3)c2O[C@@H]1CN(C)C(=O)Nc1ccccc1 | -2.8 | 7.6[16.7 µM]
C[C@H]1CCCCO[C@H](CN(C)Cc2ccc(C(F)(F)F)cc2)[C@@H](C)CN([C@@H](C)CO)C(=O)c2cc(NS(=O)(=O)c3ccc(F)cc3)ccc2O1 | 15.6 | 68.1*[16.7 µM]
CNC[C@@H]1Oc2c(NS(C)(=O)=O)cccc2C(=O)N([C@H](C)CO)C[C@@H]1C | -10.4 | -0.8[16.7 µM]
Cc1noc(C)c1S(=O)(=O)N(C)C[C@H]1Oc2ccc(NC(=O)Nc3cccc4ccccc34)cc2CC(=O)N([C@H](C)CO)C[C@H]1C | -29.5 | 7.6[16.7 µM]
C[C@H]1CN([C@@H](C)CO)C(=O)c2cccc(NS(=O)(=O)c3ccc(Cl)cc3)c2O[C@H]1CN(C)S(C)(=O)=O | 0.8 | 21.1[16.7 µM]
CC(C)NC(=O)N(C)C[C@@H]1Oc2c(NC(=O)NC3CCCCC3)cccc2C(=O)N([C@H](C)CO)C[C@@H]1C | 4.4 | 2.0[16.7 µM]
Cc1ccc(S(=O)(=O)Nc2ccc3c(c2)C(=O)N([C@@H](C)CO)C[C@@H](C)[C@H](CN(C)Cc2ccc(-c4ccccc4)cc2)O3)cc1 | -3.2 | -27.7[16.7 µM]
COc1ccc(S(=O)(=O)Nc2ccc3c(c2)CC(=O)N([C@@H](C)CO)C[C@H](C)[C@H](CN(C)Cc2ccc4c(c2)OCO4)O3)cc1 | 8.0 | 7.2[16.7 µM]
NCCCCCNC(=O)[C@H]1C[C@H]2C(=O)NCC(=O)N2[C@H]1c1cccc(OCCO)c1 | -20.0 | 0.4[16.7 µM]
COc1ccc(S(=O)(=O)Nc2ccc3c(c2)C(=O)N([C@H](C)CO)C[C@@H](C)[C@@H](CN(C)S(=O)(=O)c2ccc(C)cc2)OCCCC[C@@H](C)O3)cc1 | 9.2 | 11.7[16.7 µM]

# Other results:
SMILES | UUG fidelity | Env fusion inh
CC(=O)N(C)C[C@@H]1Oc2ncc(C#CC(C)(C)O)cc2C(=O)N([C@H](C)CO)C[C@H]1C | -10.3 | 4.5[16.7 µM]
CO[C@@H]1CN(C)C(=O)c2ccc(NC(=O)NC(C)C)cc2OC[C@@H](C)N(C(=O)CN(C)C)C[C@H]1C | -2.5 | -0.9[16.7 µM]
CCNC(=O)C[C@H]1CC[C@@H](NC(=O)C2CCC2)[C@@H](CO)O1 | 10.6 | 16.5[16.7 µM]
COc1ccc(S(=O)(=O)N(C)C[C@@H]2Oc3ccc(NC(=O)NC(C)C)cc3C(=O)N([C@@H](C)CO)C[C@H]2C)cc1 | 3.1 | 4.1[16.7 µM]
C[C@H](CO)N1C[C@H](C)[C@@H](CN(C)Cc2ccccc2)Oc2cc(-c3ccncc3)ccc2S1(=O)=O | 1.1 | 16.5[16.7 µM]
C[C@H](CO)N1C[C@H](C)[C@H](CN(C)Cc2ccc(C(F)(F)F)cc2)Oc2ccc(NC(=O)Cc3cn(C)c4ccccc34)cc2C1=O | -14.4 | 1.1[16.7 µM]
C[C@H]1CCCCO[C@H](CN(C)C(=O)NC2CCCCC2)[C@@H](C)CN([C@@H](C)CO)C(=O)c2cc(NC(=O)CCCN(C)C)ccc2O1 | 8.0 | 2.8[16.7 µM]
CCCNC(=O)C[C@H]1CC[C@H]2[C@@H](COc3ccc(NC(=O)c4cc(C)on4)cc3C(=O)N2C)O1 | -3.8 | 15.8[16.7 µM]
COc1ccccc1NC(=O)N[C@H]1CC[C@@H](CC(=O)N[C@@H](C)c2ccccc2)O[C@H]1CO | -1.5 | -2.3[16.7 µM]
O=C(Nc1ccc(F)cc1)N[C@H]1CC[C@@H](CCn2cc(-c3ccccc3F)nn2)O[C@@H]1CO | 7.8 | -8.2[16.7 µM]
C[C@@H]1CCCCO[C@@H](CN(C)C(=O)CCCN(C)C)[C@H](C)CN([C@@H](C)CO)C(=O)c2cc(NC(=O)C3CCCCC3)ccc2O1 | 34.7 | 11.2[16.7 µM]
C[C@@H]1CN([C@H](C)CO)S(=O)(=O)c2ccc(C#CC(C)(C)O)cc2O[C@H]1CN(C)C(=O)C1CCC1 | 3.4 | -6.9[16.7 µM]

# Additional compounds
SMILES | UUG fidelity | Env fusion inh
C[C@H](CO)N1C[C@H](C)[C@H](CN(C)C(=O)NC2CCCCC2)Oc2c(NC(=O)C3CCCCC3)cccc2C1=O | 0.8 | 11.0[16.7 µM]
CNC[C@H]1OCCCC[C@H](C)Oc2ccc(NS(=O)(=O)c3ccc(Cl)cc3)cc2C(=O)N([C@@H](C)CO)C[C@@H]1C | 6.3 | 11.8[16.7 µM]
COc1ccc(S(=O)(=O)Nc2ccc3c(c2)CC(=O)N([C@H](C)CO)C[C@@H](C)[C@H](CN(C)Cc2ccc(Oc4ccccc4)cc2)O3)cc1 | 1.9 | -7.1[16.7 µM]
CN(C)CC(=O)N[C@@H]1CC[C@H](CCNC(=O)C2CCCCC2)O[C@@H]1CO | 7.3 | -32.4[16.7 µM]
COc1ccc(NC(=O)Nc2ccc3c(c2)C(=O)N([C@H](C)CO)C[C@H](C)[C@H](CN(C)S(=O)(=O)c2ccc(F)cc2)OCCCC[C@H](C)O3)cc1 | 1.3 | 33.5[16.7 µM]
Cc1ccc(S(=O)(=O)N(C)C[C@@H]2Oc3ccc(NC(=O)Nc4cccc5ccccc45)cc3CC(=O)N([C@H](C)CO)C[C@@H]2C)cc1 | 3.9 | 56.5*[16.7 µM]
C[C@@H]1CN([C@@H](C)CO)C(=O)c2cc(C3=CCCC3)cnc2O[C@H]1CN(C)C(=O)c1ccc(F)cc1 | 12.0 | 0.1[16.7 µM]
C[C@H](CO)N1C[C@H](C)[C@H](CN(C)C(=O)c2ccccc2)Oc2cc(C3=CCCC3)ccc2S1(=O)=O | 13.6 | 23.4[16.7 µM]
CCCC#Cc1ccc2c(c1)O[C@H](CN(C)C(=O)c1ccccn1)[C@@H](C)CN([C@H](C)CO)S2(=O)=O | 34.8 | -27.8[16.7 µM]
Cc1noc(C)c1S(=O)(=O)Nc1cccc2c1O[C@H](CN(C)CC1CCCCC1)[C@H](C)CN([C@@H](C)CO)C2=O | 10.2 | -3.1[16.7 µM]
COc1ccc(NC(=O)N(C)C[C@H]2OCCCC[C@@H](C)Oc3ccc(NS(C)(=O)=O)cc3C(=O)N([C@H](C)CO)C[C@@H]2C)cc1 | -19.6 | 2.3[16.7 µM]
C[C@H]1CN([C@@H](C)CO)C(=O)c2cccc(NC(=O)c3ccc(-c4nccs4)cc3)c2O[C@H]1CN(C)S(=O)(=O)c1ccc(Cl)cc1 | -8.4 | -2.1[16.7 µM]

# (further entries)
SMILES | UUG fidelity | Env fusion inh
C[C@H]1CCCCO[C@H](CN(C)Cc2ccccc2)[C@@H](C)CN([C@@H](C)CO)C(=O)c2cc(NS(=O)(=O)c3cn(C)cn3)ccc2O1 | 24.5 | 31.1[16.7 µM]
O=C(C[C@@H]1CC[C@H]2[C@@H](COC[C@H](O)CN2C(=O)Nc2cccc(Cl)c2)O1)NCc1ccccc1F | 5.9 | 0.8[16.7 µM]
COc1cccc(CNC(=O)C[C@H]2CC[C@@H](NC(=O)C3CCOCC3)[C@H](CO)O2)c1 | -2.0 | -13.1[16.7 µM]
CCCNC(=O)C[C@H]1CC[C@H]2[C@@H](COc3ccc(NC(=O)Cc4cccs4)cc3C(=O)N2C)O1 | 2.4 | -20.2[16.7 µM]
C[C@H](CO)N1C[C@H](C)[C@@H](CN(C)S(=O)(=O)c2ccc(Cl)cc2)OCCCC[C@H](C)Oc2ccc(NS(=O)(=O)c3cccs3)cc2C1=O | -3.4 | -43.7[16.7 µM]
COc1ccc(S(=O)(=O)N(C)C[C@H]2Oc3ccc(NS(=O)(=O)c4c(C)noc4C)cc3CC(=O)N([C@H](C)CO)C[C@@H]2C)cc1 | 5.7 | 8.2[16.7 µM]
C[C@H]1CN([C@@H](C)CO)C(=O)c2cc(NC(=O)Nc3cccc4ccccc34)ccc2O[C@@H]1CN(C)S(=O)(=O)c1ccccc1 | 5.0 | 2.8[16.7 µM]
O=C(NCC[C@@H]1CC[C@@H](NC(=O)C2CCC2)[C@@H](CO)O1)c1ccc(F)cc1 | 2.6 | -9.7[16.7 µM]
